# High-throughput results: PubChem BioAssay, several laboratories
# LANA-H2B inh – blocks KSHV LANA binding to histone H2A/H2B; Q9QR71; cell-free LANA-H2A/H2B peptide, fluorescence polarization; inhibition, % (no concentration beside the values); 320,000 tested, 0.6% active; AID 2629; in the data active = inhibition mostly above about 10%, no sharp cut-off; inactive = mostly below about 6.7%;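 note: stock transfer was 7.5 nL into about 10 µL; 0% = median of vehicle wells and 100% = median of positive control wells; one replicate is shown; the record names a cut of 25% in any replicate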
# Target sequence (Q9QR71 whole entry, looked up): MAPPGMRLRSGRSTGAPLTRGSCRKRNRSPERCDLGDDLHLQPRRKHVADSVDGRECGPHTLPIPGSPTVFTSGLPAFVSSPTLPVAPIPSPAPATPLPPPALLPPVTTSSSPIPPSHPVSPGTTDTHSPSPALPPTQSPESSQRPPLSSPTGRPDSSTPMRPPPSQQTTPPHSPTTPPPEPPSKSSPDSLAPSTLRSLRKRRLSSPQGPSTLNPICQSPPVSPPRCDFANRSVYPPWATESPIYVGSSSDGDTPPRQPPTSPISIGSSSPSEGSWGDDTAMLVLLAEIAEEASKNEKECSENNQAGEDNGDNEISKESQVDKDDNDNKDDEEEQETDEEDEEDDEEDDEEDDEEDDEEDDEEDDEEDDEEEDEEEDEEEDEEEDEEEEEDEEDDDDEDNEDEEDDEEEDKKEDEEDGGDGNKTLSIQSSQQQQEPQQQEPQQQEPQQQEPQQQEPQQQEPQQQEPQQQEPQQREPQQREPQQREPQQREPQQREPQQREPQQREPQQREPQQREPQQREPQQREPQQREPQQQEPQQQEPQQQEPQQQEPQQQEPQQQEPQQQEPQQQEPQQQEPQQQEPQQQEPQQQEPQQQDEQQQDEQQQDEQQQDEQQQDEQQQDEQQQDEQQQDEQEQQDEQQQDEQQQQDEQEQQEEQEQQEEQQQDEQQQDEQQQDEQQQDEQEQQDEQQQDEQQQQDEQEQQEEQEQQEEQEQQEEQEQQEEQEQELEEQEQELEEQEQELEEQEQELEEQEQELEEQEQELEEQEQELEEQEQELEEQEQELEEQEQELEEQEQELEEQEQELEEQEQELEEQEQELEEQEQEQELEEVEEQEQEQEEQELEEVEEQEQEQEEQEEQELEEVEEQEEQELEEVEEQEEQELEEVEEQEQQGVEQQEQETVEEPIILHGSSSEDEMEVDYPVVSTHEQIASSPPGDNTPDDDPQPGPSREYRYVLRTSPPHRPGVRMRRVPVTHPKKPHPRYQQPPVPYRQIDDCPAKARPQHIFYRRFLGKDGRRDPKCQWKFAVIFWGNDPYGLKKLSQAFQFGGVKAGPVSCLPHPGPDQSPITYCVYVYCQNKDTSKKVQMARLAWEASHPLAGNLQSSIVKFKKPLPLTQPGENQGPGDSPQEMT
# E coli growth – blocks Escherichia coli growth; OD600 absorbance (concentration not given with the values); 330,000 tested, 0.21% active; OD600, 23 h; hits give low values; AID 1053175;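 active = OD600 absorbance below the run mean of sample wells minus 3.6 SD, in any replicate, cut at about 0.56 in these data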;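 note: stock transfer was 300 nL into about 60 µL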
# UCH37 inh – inhibitors of human deubiquitinating enzyme UCH37 | Q9Y5K5 | purified proteasome/UCH37, Ub-AMC cleavage fluorescence | inhibition, % (test concentration not listed) | 330,000 tested, 0.33% active | AID 588478;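 active = mean of two replicates above 20%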;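 note: 0% = compound-free wells with enzyme and 100% = wells lacking proteasome; stock transfer was 100 nL into about 20 µL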
#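 Test system – human UCH37 enzyme supplied as purified proteasome complex · Incubation – 30 min preincubation with enzyme, 25 min cleavage at room temperature · Detection – AMC fluorescence from Ub-AMC cleavage, excitation 355 nm, emission 460 nm · Benchmarks – no-proteasome wells (full inhibition) and compound-free wells (no inhibition)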
# HNF4A DNA FP – change in binding of human HNF4 alpha to DNA. P41235. AID 1224865. activity change, % at 10 µM. 360,000 tested, 0.3% active. HNF4a-FITC DNA binding, fluorescence polarization, 1 h; in the data active = activity change above about 30%, passing the limit was not always enough;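 note: controls were the assay level and a saturating level of protein; the project sought stronger binding though the title names inhibitors; some compounds called inactive have numbers as strong as hits; positive values seem to mean higher polarization but the record does not say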
# ALR inh – blocks human ALR sulfhydryl oxidase activity; inhibition, % (concentration not given with the values); purified ALR, DTT oxidation, H2O2 HRP-luminol luminescence; 290,000 tested, 3.8% active; AID 485317; P55789;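 active = mean and each replicate at 75% or more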;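 note: stock transfer was 7.5 nL into about 7.5 µL; 0% = neutral wells and 100% = wells with inactivated enzyme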
# FGF22 binding – FGF22 (human) thermal shift binding | Q9HCT0 | recombinant FGF22 thermal shift, SYPRO orange fluorescence; percent of sucrose octasulfate shift, DMSO zero | calls only at 9.99 µM | 340,000 tested, 1.5% active | AID 651658;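 active = melting point raised past a set limit in the mean and every replicate; three in four hits are not shown here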
# B2AR ag – agonists of human beta-2 adrenergic receptor inducing internalization | P07550 | Am2.2-beta2AR cells, FAP receptor internalization, flow cytometry; reference of the scale not given here | response, % (no concentration beside the values) | 340,000 tested, 0.43% active | AID 504454;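 active = response above a set limit, near 3 SD of response in nonfluorescent compounds, cut at about 42% in these data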;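 note: stock transfer was 100 nL into about 11 µL; a reference agonist was the positive control; negative values mostly stem from fluorescent compounds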
# * marks the source's active call; other numbers are inactive results; i = inactive; x = not tested or not shown; & = joins results of further samples. A portion of the library; rates above refer to the full screens.
# Each structure is followed by: FGF22 binding	E coli growth	B2AR ag	HNF4A DNA FP	LANA-H2B inh	ALR inh	UCH37 inh
1. O=C(c1cccc2ccccc12)C1CCCN(C(=O)CCc2cnccn2)C1 (centres undefined)
    i	0.645	0.5	2.2	-1.4	-5.8	3.5
2. Cc1ccc2[nH]c(=O)c(CN(CC3CCCO3)S(=O)(=O)c3cccc4nsnc34)cc2c1 (centres undefined)
    x	0.688	-4.2	0.9	x	x	7.1
3. O=C(CCC1CCCC1)Nc1cc(Cl)ccc1N1CCOCC1
    i	0.655	-4.7	1.2	3.4	x	-0.6
4. O=C(COc1ccccc1)N=C1SC2CS(=O)(=O)CC2N1Cc1ccccc1 (centres undefined)
    i	0.716	-10.3	4.6	-0.4	-1.0	3.2
5. COc1ccc(Cc2nnc(NC(=O)Nc3ccccc3F)s2)cc1
    i	0.688	-1.2	-2.5	-2.9	x	-0.4
6. COC(=O)[C@@H](NC(=O)N1CCC(C)CC1)C(C)C
    i	0.698	2.9	1.5	0.4	-1.2	2.6
7. Cc1cc2ncc(S(=O)(=O)C(C)(C)C)c(N)n2n1
    i	0.674	4.7	3.9	x	x	1.5
8. COC(=O)c1ccc(-c2cc(C(=O)O)c3cc4c(cc3n2)OCCO4)cc1
    x	0.779	0.5	-1.9	2.8	8.3	i
9. COc1ccc(CN(C(=O)CN2C(=O)c3ccccc3S2(=O)=O)C(C(=O)NCC2CCCO2)c2ccncc2)cc1 (centres undefined)
    x	0.709	-5.7	2.0	2.2	6.4	2.9
10. CC(=O)N(/N=C/c1ccc([N+](=O)[O-])o1)c1nc2ccccc2c(=O)n1-c1ccccc1
    x	x	-4.5	0.8	-0.5	-27.1	x
11. C[N+]1(C2CCC3CCCC2C3O)CCCC1 (centres undefined)
    x	0.687	2.1	-0.8	0.4	-2.2	1.1
12. CN(C)C(=O)Oc1cccc([N+](C)(C)C)c1
    i	0.644&0.674	13.2&-4.0	2.5&0.9	-7.4&-1.2	-14.1	1.0&-1.3
13. Cn1cc(CNCc2ccc(-n3cccn3)cc2)c(-c2ccccc2F)n1
    i	0.672	-8.7	2.9	3.4	2.8	-3.7
14. COc1cc(NC(=S)N2CCN(C)CC2)c(OC)cc1Cl
    i	0.716	6.9	2.6	-9.0	x	-1.9
15. CN1OC[C@@H]2CN[C@H](c3cccc(-c4ccccc4)c3)C[C@@H]21
    i	x	6.6	3.5	x	x	x
16. CCOC(=O)C1CCCN(C/C(O)=C(\C#N)c2nc(-c3ccc(Cl)cc3)cs2)C1 (centres undefined)
    x	x	6.2	-23.2	-2.8	34.5	x
17. C#CC(=O)N(c1ccc(OC)c(OC)c1)C(C(=O)NC1CCCC1)c1cccs1 (centres undefined)
    i	0.658	17.3	3.4	-2.1	-0.2	5.6
18. CC(=O)Nn1cc2c(c1-c1ccccc1)c(=O)n(C)c(=O)n2C
    x	0.723	2.5	1.6	4.9	-2.3	-3.8
19. Cc1ccc(C(=O)Nc2ccc(NC(=O)c3cccs3)cc2)c(C)c1
    i	0.709	-10.9	0.9	1.8	-0.5	-27.2
20. COCCCN(C(=O)C1CCCCC1)c1c(N)n(Cc2ccccc2)c(=O)[nH]c1=O
    i	0.711	-0.7	-0.5	1.1	x	1.9
21. O=C(Cc1ccccc1)N/N=C/C=C/c1cccc([N+](=O)[O-])c1
    x	x	5.8	-1.5	0.3	-2.1	x
22. Cc1sc(-c2ccccn2)nc1OC(=O)c1ccc(Cl)c(Cl)c1
    x	0.747	-1.1	0.4	1.0	-12.6	5.1
23. CCCNC(=O)C(Cc1ccc(Cl)cc1)NC(=O)c1ccc(C#N)cc1 (centres undefined)
    i	0.709	-0.9	-2.7	-1.9	0.9	1.9
24. Cn1c(=O)c(NC(=O)c2ccccc2)c2n(c1=S)CCCCC2
    x	0.679	-11.9	-0.7	-0.5	-14.7	2.4
25. O=C(NCC(=O)N1CC(O)CC1C(=O)N1CCCC1C(=O)OCc1ccccc1)OCc1ccccc1 (centres undefined)
    i	0.667	-3.8	-0.2	1.9	11.4	4.2
26. COc1ccc(S(=O)(=O)NCCNC(=O)N2CCOCC2)cc1
    i	0.66	1.4	1.6	1.7	0.7	1.3
27. CC(C)CN1C(=O)NC2(CCCc3ccccc32)C1=O (centres undefined)
    i	0.745	-5.1	-4.7	1.1	0.5	-1.0
28. COc1cc(=O)n(C)c2c(OCC3OC(C)(C)OC3(C)C)cccc12 (centres undefined)
    i	0.704	24.9	-1.8	-3.0	-31.5	-0.3
29. CC(=O)Nc1ccc(S(=O)(=O)NCC(=O)OCC(=O)NCc2ccco2)cc1
    i	0.664	0.6	1.0	-2.8	4.7	5.3
30. CCCCCc1c(C)nc(N2CCc3ccccc3C2)[nH]c1=O
    x	0.649	-4.0	0.5	x	x	0.5
31. COc1ccc2nc(NC(=O)C3CCCN(S(=O)(=O)c4c(C)noc4C)C3)sc2c1 (centres undefined)
    i	0.767	6.2	4.6	-1.8	-10.7	2.0
32. Cc1ccccc1C(=O)NC(=S)NCc1ccccc1
    i	0.702	6.8	1.4	0.6	-8.3	1.0
33. Cc1c(S(=O)(=O)Nc2ccc3c(c2)OCCO3)c(=O)n(C)c(=O)n1C
    i	0.791	-82.9	2.9	2.3	-2.5	3.9
34. Cc1ccc(-n2nc3c(=O)n(CC(=O)NC4CCCCCC4)nc(C)c3c2C)cc1
    i	0.688	2.3	-5.5	0.8	1.9	1.7
35. Cc1ccc(S(=O)(=O)N2CCCN(S(=O)(=O)C3CCS(=O)(=O)C3)CC2)cc1 (centres undefined)
    x	0.729	2.7	0.7	-2.5	-4.1	3.1
36. O=C(NC1CCCc2ccccc21)N[C@@H](Cc1ccccc1)C(=O)O (some centres undefined)
    i	0.694	-0.1	-1.3	1.9	-11.5	-1.9
37. Cc1ccc(C)c(-c2nnc(NC(=O)c3ccco3)o2)c1
    i	0.659	-2.8	-4.9	-5.6	3.1	0.3
38. O=C(NCC(c1ccc(F)cc1)N1CCOCC1)c1cccnc1Sc1ccc(Cl)cc1 (centres undefined)
    i	0.688	-4.7	-0.9	-0.4	-11.5	2.5
39. O=[N+]([O-])c1ccc(Cc2ccc([N+](=O)[O-])cc2)cc1
    i	0.666	-11.4	4.8	x	x	-2.3
40. COCCNC(=O)C1CCC(CNS(=O)(=O)c2ccc3c(c2)CC(C)N3C(=O)C2CC2)CC1 (centres undefined)
    i	0.7	-4.9	0.2	-2.7	-0.3	-3.9
41. Cc1ccc(S(=O)(=O)N2CCN(C(=O)COC(=O)CSc3ccccc3)CC2)c(C)c1
    i	0.718	-0.6	0.6	-3.0	-3.0	-1.1
42. C/C=C/CSc1nc2c(c(=O)[nH]c(=O)n2C)n1Cc1ccc(C)cc1
    i	0.722	7.5	-0.7	2.8	-2.7	1.4
43. COc1cccc(N=CNc2cccc(OC)c2)c1
    i	0.645	5.9	-6.9	x	x	3.4
44. Cc1cccc(N2CCN(CC(=O)N(C3CCCC3)C3CCS(=O)(=O)C3)CC2)c1C (centres undefined)
    i	0.708	-8.3	-1.5	-0.3	x	-2.3
45. CCCCn1c(N)c(N(CC)C(=O)c2ccc3c(c2)S(=O)(=O)c2ccccc2C3=O)c(=O)[nH]c1=O
    x	0.687	54.9*	2.7	-8.0	2.0	6.0
46. CC(=O)N1C(C)(C)CC(=NOS(=O)(=O)c2ccccc2)CC1(C)C
    x	0.682	1.9	1.2	x	x	4.9
47. CCc1ccccc1NC(=O)CCC(=O)OCC(=O)c1ccc(-c2ccccc2)cc1
    x	0.657	4.1	-1.1	1.3	-1.4	0.2
48. S=C(NCc1cccc(Cl)c1)NC1CCCCC1
    x	0.635	-7.1	-0.1	5.9	-1.9	2.2
49. Cc1nnc(SCC(=O)N(C)CC(=O)Nc2ccccc2Cl)s1
    x	0.68	-5.8	-1.8	0.0	11.5	1.1
50. CCOC(=O)C1(Cc2cccc(Cl)c2)CCCN(CCO)C1 (centres undefined)
    i	0.633	-7.2	-3.2	0.3	x	-0.4
51. O=C(NC1CCCCCCC1)c1cc(F)c(F)cc1Cl
    i	0.731	2.7	1.0	-4.0	-7.1	3.5
52. COc1cccc(-n2c(Cc3cc(=O)[nH]c(=O)[nH]3)nnc2SCc2cccnc2)c1
    i	x	-4.5	-3.5	-0.3	13.4	x
53. CC(C)N(C(=O)c1ccccc1-c1ccccc1)C(C)C
    x	0.704	-3.2	1.3	-2.2	-2.9	1.1
54. CC(=O)OC(C(=O)NCc1ccco1)c1ccncc1 (centres undefined)
    x	0.71	6.2	0.9	-3.6	2.3	5.2
55. Fc1cccc(Cc2noc(CN3CCN(c4cnccn4)CC3)n2)c1
    i	0.687	-2.5	0.2	0.2	x	3.3
56. COc1ccc(N(C)S(=O)(=O)c2cccc(C(=O)OCC(=O)N3CC(C)CC(C)C3)c2)cc1 (centres undefined)
    i	0.7	-1.0	1.2	3.8	1.2	0.4
57. COc1cc(C(C)=O)ccc1COc1ccc(C(=O)O)cc1OC
    i	0.679	6.0	7.2	-3.1	-1.7	3.6
58. CCOC(=O)c1ccccc1NC(=O)Cc1ccccc1OC
    x	0.724	24.7	0.2	-0.9	-4.1	0.4
59. O=C(NCc1ccco1)c1cc2nc(C3CC3)cc(C(F)(F)F)n2n1
    x	0.777	-0.5	-4.6	-3.6	2.6	0.0
60. COc1ccc([C@@]2(C(C)C)ON(c3ccccc3C(F)(F)F)C2=O)cc1
    i	0.66	12.2	3.8	-0.7	0.7	6.0

# Additional results follow:
# Each structure is followed by: FGF22 binding	E coli growth	B2AR ag	HNF4A DNA FP	LANA-H2B inh	ALR inh	UCH37 inh
61. CCC(NC(=O)c1cc(COc2ccc(F)cc2Cl)on1)c1ccncc1 (centres undefined)
    i	0.673	3.5	-0.7	x	x	1.2
62. CCOc1ccc(NS(=O)(=O)c2ccc(NS(=O)(=O)c3ccccc3)cc2)cc1
    x	0.595	-2.0	1.7	4.2	-4.4	1.2
63. CCOC(=O)CSc1nc2sc(C)c(C)c2c(=O)[nH]1
    x	0.728	4.8	1.2	2.2	-2.0	4.5
64. CCOC(=O)C1=C(CSc2nc(CC)c(C)cc2C#N)OC(N)=C(C#N)C1c1ccccc1 (centres undefined)
    x	0.695	8.6	3.0	0.7	-0.1	-3.8
65. Cn1c(SCc2n[nH]c(=S)o2)nnc1-c1ccccc1
    i	0.645	-1.3	-0.2	2.0	26.4	2.4
66. Cc1cc(C)c2c(N)c(C(=O)C(C)(C)C)sc2n1
    i	0.722	-19.0	-1.7	0.6	6.1	-77.1
67. CCn1ncc(/C=N/O)c1C
    x	x	4.7	1.9	-7.2	-2.7	x
68. COc1ccc(N=C2NC(=O)/C(=C/C=C/c3ccccc3)S2)cc1
    i	0.705	18.6	2.6	-4.6	-1.2	9.6
69. O=C(CN1C(=O)C2C3C=CC(C3)C2C1=O)OCC(=O)c1ccc(Br)cc1 (centres undefined)
    i	0.678	-1.6	4.5	4.3	-4.2	0.4
70. O=C(COc1ccccc1)NCCSc1ccccc1
    x	0.654	-4.5	-2.8	0.5	-9.6	5.2
71. CCC(CO)Oc1cc(NC(=O)c2ccccc2C)c2ncn(C(C)C)c2c1 (centres undefined)
    i	0.656	-4.5	1.4	-1.7	-35.1	-0.1
72. CCN(CC)S(=O)(=O)c1cc(-c2nn(C)c(=O)c3ccccc23)ccc1C
    x	0.712	1.1	-4.4	-0.5	-3.1	0.6
73. CN1CCCC(OC(=O)c2cc(F)c(F)c(F)c2F)C1 (centres undefined)
    i	0.679	-3.8	-1.1	-6.3	-3.6	0.7
74. CCCCN(C)CCn1c(=S)[nH]c2ncccc2c1=O
    x	0.676	13.2	0.8	-0.7	34.9	3.5
75. CCOc1ccccc1CN1CCN(Cc2cc3ccccc3[nH]2)CC1CCO (centres undefined)
    i	0.723	4.0	1.0	-2.6	x	-2.3
76. COC(=O)[C@]1(Cc2ccccc2)N[C@H](CN(C)C(=O)C2CCCCC2)[C@@H]2C(=O)N(C)C(=O)[C@@H]21
    i	0.676	-6.1	3.3	x	x	4.3
77. Cc1ccc(-n2cc(CN3CCN(c4ccccn4)CC3)c(-c3ccc(F)cc3)n2)cc1
    i	0.719	13.5	2.3	-1.0	-1.8	3.7
78. CCOc1cc(/C=N/O)ccc1OS(=O)(=O)c1ccc(C)cc1
    x	x	3.2	4.8	2.1	36.1	x
